gsp antag: antagonists of gsp mutant (McCune-Albright syndrome); gsp-mutant cells, cAMP HTRF, 30 min; control for the full effect not named in the record; Potency, µM (titrated, usually from 76.9 µM), inactives show at the top dose activity change, negative = inhibition, most hits filed as inhibitors; 340,000 compounds, 0.4% hits; active = falling curve of any shape with a large fitted effect; inconclusive = falling curve, mostly with a smaller effect; inactive = flat or rising curve; cell line not stated here;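 also: intracellular cAMP measured with PDE inhibitor Ro 20-1724 present during compound exposure; potency is read from the fitted curve at half-maximal effect; % is scaled to controls: 0 for no effect and ±100 for the full control effect; nearly all actives have a fitted effect of over 65% in size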
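Measurement of cellular cAMP by homogeneous time-resolved fluorescence following a 30 min compound exposure at 37C. The PDE inhibitor […] was present throughout; the assay buffer was DPBS with 0.05% BSA and 0.005% Tween 20.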
Menin-MLL FL inh: displaces fluorescein MLL peptide from human menin; Fluorescence polarization, fluorescein-MLL peptide displacement from menin; FP activity change, % at 61.4 µM; 290,000 tested, under 10 active; inconclusive = falling polarisation curve, or a change in total fluorescence; inactive = total fluorescence flat and polarisation flat or rising; no compound was filed as active; the % refers to the polarisation; negative = inhibition;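 also: % of control where 0% means no effect; inhibitors lower the polarisation; unlabelled MLL peptide was the positive control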
ClpP mod: qHTS Assay for Activators of ClpP; ATP-dependent Clp protease proteolytic subunit (Bacillus subtilis (strain 168)), P80244; Potency, µM (series often up to 57.5 µM), for inactives: at the top dose activity change, negative = active; 340,000 compounds, 1.9% hits; AID 651965, 2013; purified B. subtilis ClpP, FRET peptide cleavage, 20 min; active = well fitted falling curve with a large enough effect; inconclusive = small, poorly fitted or top-dose-only effect; inactive = no such curve, though single readings can be large or run the other way; also: potency is read from the fitted curve at half-maximal effect; the source files actives as falling curves though it sought activators and does not explain the sign; nearly all actives have a fitted effect of over 65% in size; many hits overshoot -100%
Target sequence (P80244 whole entry, looked up): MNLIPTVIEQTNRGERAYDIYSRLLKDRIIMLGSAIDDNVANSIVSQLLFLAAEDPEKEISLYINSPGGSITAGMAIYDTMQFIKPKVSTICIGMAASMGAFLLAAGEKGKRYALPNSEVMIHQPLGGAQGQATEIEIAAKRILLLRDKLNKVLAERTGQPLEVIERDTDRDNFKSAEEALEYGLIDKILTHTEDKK
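Buffer: 100 mM Tris/HCl pH8, 100 mM KCl, 0.05% low protease BSA, 2.5% glycerol, 0.01% Tween-20. ClpP 10 microg/mL final; 20 min RT; delta FRET normalized to ADEP and DMSO controls.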
TRPML1 blocker: blocks the human TRPML1 channel. TRPML1-inducible cells, Ca2+ dye fluorescence, FDSS; stronger effect = lower value; inhibition of EC80 agonist-evoked calcium signal. 390,000 compounds, 0.02% hits. Q9GZU1. AID 624415. activity change, negative = inhibition, % (concentration not given with the values); in the data active means activity change below about -50%; inconclusive means about -30% to -50%; inactive means above about -30%;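 also: stimulus is agonist 54-4 at its EC80 concentration; % is scaled to controls: 0 for no effect and ±100 for the full control effect; the text of the record puts the active cut at -80%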
Target sequence (Q9GZU1 whole entry, looked up): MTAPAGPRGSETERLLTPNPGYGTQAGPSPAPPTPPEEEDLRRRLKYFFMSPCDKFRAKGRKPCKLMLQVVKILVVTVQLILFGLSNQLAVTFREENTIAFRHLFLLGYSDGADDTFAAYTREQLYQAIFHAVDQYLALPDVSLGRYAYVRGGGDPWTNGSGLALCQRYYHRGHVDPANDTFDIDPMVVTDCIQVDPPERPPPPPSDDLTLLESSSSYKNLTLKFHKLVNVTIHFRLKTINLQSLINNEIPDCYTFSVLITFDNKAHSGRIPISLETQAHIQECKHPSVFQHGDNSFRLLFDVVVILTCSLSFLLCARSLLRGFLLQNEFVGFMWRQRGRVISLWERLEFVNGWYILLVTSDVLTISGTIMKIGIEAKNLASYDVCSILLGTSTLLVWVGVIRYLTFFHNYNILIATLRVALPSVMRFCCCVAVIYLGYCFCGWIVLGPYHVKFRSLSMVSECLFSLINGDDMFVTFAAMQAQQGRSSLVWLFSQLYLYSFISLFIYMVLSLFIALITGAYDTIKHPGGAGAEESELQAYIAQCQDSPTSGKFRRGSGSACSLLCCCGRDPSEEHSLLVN
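TRPML1-DL cells, Tet-induced overnight (~16 h, 37 °C) at 1,500 cells/well, were loaded with Ca8 no-wash dye plus quencher for 45-90 min at room temperature. Compounds were pinned during FDSS kinetic reading; agonist 54-4 at EC80 (4 uM final) then added.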
TRPML1 agonist: activates the human TRPML1 channel. Q9GZU1. TRPML1-expressing cells, Ca2+ dye fluorescence, FDSS; host cell line not named in the record; reference of the full effect not given here. activation, % (no concentration beside the values). 410,000 compounds, 0.12% hits; in the data active = activation above about 50%; inconclusive = about 30% to 50%; inactive = below about 30%; also: 0% is about no effect; the text of the record puts the active cut at 80%
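Cells: TRPML1-DL, 1X Tet inducer, ~16 h at 37 degrees C/5% CO2. Dye: ABD Ca8 no-wash + quencher, 45-90 min RT. Read: 10 s baseline, compound add, 110 s agonist phase; 54-4 EC80 (4uM final), 110 s antagonist phase.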
gsp ag: gsp mutant agonism; gsp mutant cells, cAMP HTRF, 30 min; control for the full effect not named in the record; Potency, µM (titrated, usually from 76.9 µM), without a hit: top-dose activation (cAMP increase), most hits filed as activators; 340,000 compounds, 0.13% hits; active = well fitted activation curve with a large enough effect; inconclusive = small, poorly fitted or top-dose-only effect, or another doubt; inactive = no such curve, though single readings can be large or run the other way; cell line not stated here;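 also: phosphodiesterase inhibitor Ro 20-1724 added with compounds to block cAMP breakdown; potency is read from the fitted curve at half-maximal effect; nearly all actives have a fitted effect of over 60% in size; about a fifth of the inactives were tested at one dose only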
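Cells stably selected in G418 were plated at 2000/well, grown 16-24 hr, then given compounds in DMSO with the PDE inhibitor […] (300 uM solution added) for 30 min at 37C; cAMP was read by HTRF.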
An asterisk follows results filed as active; [ ] = dose if it differs, or a comment.

`CCOC(=O)c1ccc(NS(=O)(=O)c2cc3c(cc2C)NC(=O)CO3)cc1` gave gsp antag -28.5%, ClpP mod -1.6%, TRPML1 blocker 47.6, TRPML1 agonist 0.0 and gsp ag -39.0%.
For Cc1ccc2nc(CN3CCN(S(=O)(=O)c4ccccc4)CC3)oc2c1 the results were ClpP mod 1.4%, TRPML1 blocker -6.1 and TRPML1 agonist 0.6.
Screening CCCn1c(SCC(=O)c2c(N)n(C3CC3)c(=O)[nH]c2=O)nnc1-c1ccncc1 returned gsp antag 6.1%, ClpP mod -2.5%, TRPML1 blocker 11.2, TRPML1 agonist -0.2 and gsp ag -6.6%.
Cc1ccccc1C(=O)Nc1ccnn1C1CCN(C2CCSCC2)CC1 was read as gsp antag 9.9%, ClpP mod 1.2%, TRPML1 blocker 5.8, TRPML1 agonist 0.0 and gsp ag 5.5%[15.4 µM].
`N/C(=N\NC(=O)c1ccc(F)cc1)c1cc2ccccc2oc1=O` gave gsp antag 6.1%, Menin-MLL FL inh -4.9, ClpP mod -1.7%, TRPML1 blocker 3.9, TRPML1 agonist 0.5 and gsp ag -28.9%.
`N#Cc1c(/N=C/c2cc(Br)cs2)sc2c1CCC2` gave gsp antag -1.3%, ClpP mod -0.1%, TRPML1 blocker 12.2, TRPML1 agonist -0.8 and gsp ag -10.8%.
For O=C(COC(=O)c1ccco1)NCc1ccc(F)cc1 the results were gsp antag 12.8%, Menin-MLL FL inh 3.4, TRPML1 blocker -8.3, TRPML1 agonist -0.7 and gsp ag -9.5%.
For CCOc1ccc(CNC(=O)CSc2nnc(C)c3c(C)n(-c4ccccc4)nc23)cc1 the results were ClpP mod 0.9%, TRPML1 blocker -1.2 and TRPML1 agonist 1.5.
Screening Cc1c(Cl)c(C(=O)N2CCCc3ccccc32)nn1C returned gsp antag -11.5%, Menin-MLL FL inh 2.5, ClpP mod 0.7%, TRPML1 blocker 40.9, TRPML1 agonist 1.3 and gsp ag -13.2%.
CC1=C(C(=O)Nc2cccnc2)C(c2cccnc2)n2nc(-c3cccs3)nc2N1 (configuration not stated) was read as gsp antag 4.6%, Menin-MLL FL inh -3.2, ClpP mod -12.0%, TRPML1 blocker -3.6, TRPML1 agonist 1.5 and gsp ag -54.0%[inhibitor].
CC(C)Cn1c(N)c(C(=O)COC(=O)C2CC(=O)N(Cc3ccccc3Cl)C2)c(=O)n(C)c1=O (configuration not stated) was read as gsp antag -35.9%, Menin-MLL FL inh 1.0, TRPML1 blocker -13.3, TRPML1 agonist 0.9 and gsp ag 12.1%.
Screening Cc1ccc(CNC(=O)CCc2nnc3ccc(NCCCN4CCCC4=O)nn23)cc1 returned gsp antag 6.5%, ClpP mod 0.5%, TRPML1 blocker -2.6, TRPML1 agonist -0.8 and gsp ag -32.8%.
Screening COc1ccc(N2CCN(C(=O)c3oc4ccccc4c3NC(=O)Cc3ccc(OC)c(OC)c3)CC2)cc1 returned gsp antag -18.8%, Menin-MLL FL inh 4.5, ClpP mod -1.4%, TRPML1 blocker -7.9, TRPML1 agonist -1.1 and gsp ag -1.4%.
Screening O=C(Nn1c(-c2ccc(Br)cc2)nc2ccccc2c1=O)c1ccncc1 returned gsp antag -10.2%, Menin-MLL FL inh 3.7, TRPML1 blocker 5.7, TRPML1 agonist 0.0 and gsp ag 12.2%[15.4 µM].
For CCOc1ccc(NC(=O)CN(C)C(=O)CCCOc2ccc(Cl)c(C)c2)cc1OCC the results were gsp antag -10.3%, ClpP mod 2.1%, TRPML1 blocker 0.6, TRPML1 agonist 0.2 and gsp ag -26.8%.
Cc1ccc(C(=O)N2N=C(c3ccccc3)CC2(O)C(F)(F)F)o1 (configuration not stated) was read as gsp antag -12.9%, Menin-MLL FL inh -1.2, TRPML1 blocker 22.0, TRPML1 agonist 1.7 and gsp ag -5.3%.
`COc1cccc(C(=O)NC2=NC(c3ccc(N(C)C)cc3)CC(=O)N2)c1` (configuration not stated) gave ClpP mod 12.8%, TRPML1 blocker 4.9 and TRPML1 agonist 2.1.
`Cc1ccc(Cn2c(O)c(N=NC(=S)Nc3ccccc3F)c3ccccc32)cc1` gave gsp antag 0.5%, Menin-MLL FL inh -0.7, ClpP mod -1.5%, TRPML1 blocker 50.8, TRPML1 agonist 0.4 and gsp ag -6.9%.
Cc1cc(C)c(S(=O)(=O)N2CCCC2CNC(=O)c2ccc3c(c2)OCO3)c(C)c1 (configuration not stated) was read as gsp antag -5.3%, ClpP mod -2.8%, TRPML1 blocker -10.2, TRPML1 agonist -0.9 and gsp ag -8.2%.
Screening C=CCOc1ccc(C(c2c(C(=O)O)[nH]c3ccccc23)c2c(C(=O)O)[nH]c3ccccc23)cc1 returned gsp antag 7.2%, Menin-MLL FL inh -2.3, ClpP mod -1.8%, TRPML1 blocker 12.5, TRPML1 agonist -0.9 and gsp ag 13.3%[15.4 µM].
For CCOC(=O)c1sc(NC(C)=O)nc1-c1ccccc1 the results were gsp antag 9.4%, Menin-MLL FL inh 1.5, ClpP mod 2.0%, TRPML1 blocker 11.4, TRPML1 agonist -0.6 and gsp ag 25.1%.
Screening Cc1ccc(S(=O)(=O)N2c3cc(C)ccc3OCC2C(C)(C)C)cc1 (configuration not stated) returned gsp antag -23.3%, Menin-MLL FL inh 2.3, ClpP mod -0.8%, TRPML1 blocker 87.3, TRPML1 agonist 3.3 and gsp ag -20.0%.
O=C(COc1ccccc1)NCC(c1ccco1)N1CCCCC1 (configuration not stated) was read as gsp antag -0.6%, ClpP mod -2.6%, TRPML1 blocker -1.3, TRPML1 agonist -0.4 and gsp ag inconclusive.
For CCc1ccc[n+](-c2[nH]c(=O)sc2/C=N/N=C(\[O-])c2cccnc2)c1 the results were gsp antag -1.4%, ClpP mod -0.3%, TRPML1 blocker 2.3, TRPML1 agonist -0.2 and gsp ag 19.8%.
`O=C(Nc1cccnc1)c1ccc(F)c(S(=O)(=O)N2CCOCC2)c1` gave gsp antag 5.9%, Menin-MLL FL inh -5.5, ClpP mod inconclusive, TRPML1 blocker -0.8, TRPML1 agonist -1.3 and gsp ag -7.5%[15.4 µM].
For O=C(O)c1ccc(SCc2ccccc2)nc1 the results were gsp antag 7.4%, ClpP mod -4.2%, TRPML1 blocker 2.0, TRPML1 agonist -0.1 and gsp ag -2.6%[15.4 µM].
For CCN(CC(=O)Nc1c(F)cccc1F)C(=O)CCSc1ccc(C)cc1 the results were gsp antag -12.0%, ClpP mod 2.7%, TRPML1 blocker 4.5, TRPML1 agonist 0.1 and gsp ag -21.5%.
For CS(=O)(=O)Nc1cccc(C2=NN(C(=O)CCCC(=O)O)C(c3cccs3)C2)c1 (configuration not stated) the results were gsp antag -12.6%, Menin-MLL FL inh -1.2, ClpP mod -0.1%, TRPML1 blocker -6.7, TRPML1 agonist -0.6 and gsp ag 12.7%[15.4 µM].
Screening COc1ccc(-c2nc(CSc3nnc(C)n4c3cc3occc34)c(C)o2)cc1OC returned ClpP mod inconclusive, TRPML1 blocker 10.8 and TRPML1 agonist 1.4.
Screening CC(C)C[C@@H]1NC(=O)N(CCN2CCOCC2)C1=O returned gsp antag -4.3%[15.4 µM], Menin-MLL FL inh -6.4, ClpP mod -2.4%, TRPML1 blocker -3.1, TRPML1 agonist 1.0 and gsp ag -6.6%.
C(#Cc1ccccc1)CN1CCOCC1 was read as gsp antag 7.3%, Menin-MLL FL inh -1.5, TRPML1 blocker -5.8, TRPML1 agonist -0.3 and gsp ag 6.0%[15.4 µM].
O=C(Nc1ccccc1C(F)(F)F)C(O)(c1ccccc1)C1CCCCC1 (configuration not stated) was read as gsp antag 6.8%, ClpP mod 5.1%, TRPML1 blocker 4.4, TRPML1 agonist 0.2 and gsp ag 13.3%.
`C/C(=N\OC(=O)c1cccc(Cl)c1)c1sc(C)nc1C` gave gsp antag 4.0%, Menin-MLL FL inh -0.2, ClpP mod 0.6%, TRPML1 blocker -3.5, TRPML1 agonist 0.2 and gsp ag -6.4%.
`Cc1cc(C)c2c(=O)cc(CSc3n[nH]c(C)n3)[nH]c2c1` gave ClpP mod 1.0%, TRPML1 blocker -18.8 and TRPML1 agonist 2.0.
For COc1ccc(Cl)cc1NC(=O)CCS(=O)(=O)c1cc2c(cc1C)NC(=O)CO2 the results were gsp antag -1.1%, Menin-MLL FL inh 1.6, ClpP mod 0.4%, TRPML1 blocker 5.0, TRPML1 agonist 0.3 and gsp ag -28.6%.
CCOC(=O)c1nnc(-c2ccc(C)cc2)nc1Oc1ccc(Cl)cc1Cl was read as gsp antag -10.0%, Menin-MLL FL inh 4.6, ClpP mod 2.1%, TRPML1 blocker 0.5, TRPML1 agonist 0.1 and gsp ag 0.4%.
COc1ccc(C(=O)Nc2ccccc2C(=O)NC(Cc2ccc(O)cc2)C(=O)NNC(=O)c2ccncc2)cc1 (configuration not stated) was read as gsp antag -10.8%, Menin-MLL FL inh -0.4, TRPML1 blocker -4.3, TRPML1 agonist -0.4 and gsp ag 12.7%[15.4 µM].
COC(=O)CC(NC(=O)Nc1ccccc1F)c1ccc2c(c1)OCO2 (configuration not stated) was read as gsp antag -6.2%, Menin-MLL FL inh -2.6, ClpP mod -0.1%, TRPML1 blocker -1.4, TRPML1 agonist -0.6 and gsp ag -9.7%.
Screening Cc1ccc(Cn2ccc(-c3cnc(-c4ccccc4)s3)n2)cc1 returned gsp antag -20.1%, Menin-MLL FL inh 0.1, ClpP mod -21.9%, TRPML1 blocker 1.8, TRPML1 agonist 4.3 and gsp ag 5.0%.
`CC1CCN(CC(O)COCCC23CC4CC(CC(C4)C2)C3)CC1` (configuration not stated) gave gsp antag 12.0%, Menin-MLL FL inh 1.2, ClpP mod 0.6%, TRPML1 blocker 2.5, TRPML1 agonist 2.7 and gsp ag -4.2%.
Screening Cn1ccsc1=NC(=O)c1ccc(=O)[nH]c1 returned gsp antag 17.4%, ClpP mod -1.4%, TRPML1 blocker -4.0, TRPML1 agonist -0.4 and gsp ag inconclusive.
Cc1cc(NS(=O)(=O)c2ccc(NC(=O)COc3ccc(Cl)cc3)cc2)nc(C)n1 was read as ClpP mod -1.6%, TRPML1 blocker -19.3 and TRPML1 agonist -0.1.
For COc1cccc(CNC(=O)c2c(C)nn(-c3ccccc3)c2C)c1 the results were gsp antag 1.1%, Menin-MLL FL inh 0.2, TRPML1 blocker 23.5, TRPML1 agonist -0.7 and gsp ag -4.2%[15.4 µM].
`CCN(C(=O)CN1C(=O)c2ccccc2Sc2ccc(C(=O)OC)cc21)c1cccc(C)c1` gave ClpP mod 1.2%, TRPML1 blocker 12.5 and TRPML1 agonist 1.7.

Screens deposited in PubChem by National Center for Advancing Translational Sciences (NCATS).
